PKD1 inh: blocks activity of human protein kinase D1; Q15139; PKD1 kinase fluorescence polarization assay; inhibition, %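 (about 10 µM by stock and volumes)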; hit rate 0.056% among 200,000;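 active = inhibition of 50% or more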;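 also: controls were vehicle for no effect and a reference inhibitor for full effect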
RGS16-Gao HTS: RGS16-Galphao interaction regulator (human); O15492+P09471; bead-based flow cytometry RGS16-Galphao binding, fluorescence; actives lie on both sides; binding response (% of control), % at 10 µM; hit rate 0.38% among 220,000; AID 1441;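 active = below 25% or above 175%, edge rows of some plates excepted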;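 also: Galphao activated by GDP with aluminum fluoride before binding; 100% = wells without compound and 0% = beads without RGS; some results beyond the cut were filed as inactive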
Target sequence (O15492 whole entry, looked up): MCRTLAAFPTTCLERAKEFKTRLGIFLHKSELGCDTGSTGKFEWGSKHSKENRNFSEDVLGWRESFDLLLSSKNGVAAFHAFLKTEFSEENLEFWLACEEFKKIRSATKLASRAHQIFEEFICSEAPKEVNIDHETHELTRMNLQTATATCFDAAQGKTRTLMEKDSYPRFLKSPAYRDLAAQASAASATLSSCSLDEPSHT
Target sequence (P09471 whole entry, looked up): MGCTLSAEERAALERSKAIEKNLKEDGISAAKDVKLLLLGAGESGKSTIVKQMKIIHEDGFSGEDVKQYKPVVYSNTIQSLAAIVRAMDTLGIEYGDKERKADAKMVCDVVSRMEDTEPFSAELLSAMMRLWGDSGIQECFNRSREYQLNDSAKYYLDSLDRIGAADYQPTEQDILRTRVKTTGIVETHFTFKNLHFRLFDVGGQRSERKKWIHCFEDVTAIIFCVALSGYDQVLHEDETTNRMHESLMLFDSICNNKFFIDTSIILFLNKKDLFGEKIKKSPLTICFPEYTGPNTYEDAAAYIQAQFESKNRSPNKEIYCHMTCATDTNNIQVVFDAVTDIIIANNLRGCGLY
Insulin prom inh: TRM-6 insulin promoter activity inhibition; TRM-6 cells (human fetal islet line), insulin promoter-eGFP reporter, imaging; reporter expression induced with tamoxifen; inhibition, % at 2 µM; hit rate 0.9% among 130,000;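 active = inhibition above the mean plus 3 SD, with well images judged a real hit on visual review, cut at about 60% in these data, passing the limit was not always enough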
HSV replic up: HSV replication enhancement. HSV replication augmentation in cells, fold increase. maximum fold increase. hit rate 0.005% among 220,000;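 active = peak rise of 1.5-fold or more in the series; tested in PC3 cells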;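 also: first round at 10 µM; read as green reporter fluorescence; hits show the peak of a series up to 25 µM; 1 = signal of infected wells without compound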
GALR2 agonist: GALR2 (human) receptor agonism | O43603 | GALR2-expressing cells, agonist activation read-out | activation, %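 (tested at 5 µM)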 | hit rate 0.48% among 140,000;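 active = above mean plus 3 SD of all compounds, about 5% in these data, not always enough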;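 also: 0% = vehicle buffer wells and 100% = reference agonist at full effect; tested in CHO reporter cells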
Target sequence (O43603 whole entry, looked up): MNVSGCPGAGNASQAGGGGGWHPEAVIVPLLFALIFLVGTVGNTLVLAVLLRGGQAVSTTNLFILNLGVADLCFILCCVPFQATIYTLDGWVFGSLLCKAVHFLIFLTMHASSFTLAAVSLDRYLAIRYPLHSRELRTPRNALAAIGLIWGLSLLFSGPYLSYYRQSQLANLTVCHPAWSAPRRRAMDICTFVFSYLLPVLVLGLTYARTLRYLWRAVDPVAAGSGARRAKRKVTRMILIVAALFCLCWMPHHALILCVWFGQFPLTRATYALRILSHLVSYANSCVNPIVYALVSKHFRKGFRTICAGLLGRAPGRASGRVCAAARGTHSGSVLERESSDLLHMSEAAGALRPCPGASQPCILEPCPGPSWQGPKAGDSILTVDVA
Insulin prom inh cell count: further read-out of Insulin prom inh, marked with its call; normalized cell count, %; measured here: cell count, toxicity; reference of the scale not given here;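 cells exposed to compound for 48 h; stained nuclei by imaging scaled within each plate; lower means fewer cells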
HSV replic up primary fold: recorded beside HSV replic up, whose call it bears; fold increase; compound at 10 µM; measured here: primary screen fold increase 10 uM; tested in PC3 cells;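 GFP signal in the first replicate; 1 = infected wells without compound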
* hit, by the source's call; i = inactive; nt = no result given. Compounds were not picked by outcome, and some 1.1% of all compounds hit somewhere here.

SMILES	PKD1 inh	RGS16-Gao HTS	Insulin prom inh	Insulin prom inh cell count	HSV replic up	HSV replic up primary fold	GALR2 agonist
CC(C)CNC(=S)NC(=O)c1csc([N+](=O)[O-])c1	nt	108	nt	nt	i	1	nt
COc1ccc(S(=O)(=O)N2CCOCC2)cc1NC(=O)COC(=O)c1ccc(C)s1	-1	88	11	118	i	0.83	nt
CCOC(=O)C(=CNc1cccc(C)c1C)C(=O)OCC	-8	105	nt	nt	i	0.91	-1.4
COCc1c(C(=O)OC)nnn1-c1ccccc1	-5	104	48	128	i	0.75	-0.2
COc1ccc(OC)c(C2=NNC(=NCc3ccc4c(c3)OCO4)SC2)c1	-11	15	22	57	i	0.86	-1.6
O=C(Nc1ccc(F)cc1F)NC1CC1	8	106	20	123	i	0.97	nt
Cc1ccc(-n2ncc3c(NCc4ccc5c(c4)OCO5)ncnc32)c(C)c1	7	105	56	125	i	0.79	-0.9
O=S(=O)(NCC(c1cccnc1)N1CCN(c2ccc(F)cc2)CC1)c1cc(F)ccc1F (stereo unspecified)	-6	97	-186	80	i	0.91	-2.4
Cc1ccc(NC(=O)c2cc(-c3cccc(O)c3)on2)cc1C	-10	104	nt	nt	i	0.89	-0.5
FC(F)(F)c1cccnc1-n1cncn1	nt	100	nt	nt	i	0.94	nt
COc1cc(/C=N/N=C(N)N)ccc1OCc1ccc(Cl)cc1	-4	102	nt	nt	i	0.68	nt
COC(=O)Cc1cc(=O)n2[nH]cnc2n1	-3	83	30	39	i	0.93	0.3
CC1CCN(C(=O)C(Cc2ccccc2)NS(=O)(=O)c2ccc3c(c2)oc(=O)n3C)CC1 (stereo unspecified)	-4	100	nt	nt	i	0.92	-1.8
Cc1nnc(SCc2nc3ccccc3s2)n1N	-8	95	nt	nt	i	0.93	nt
C/[N+]([O-])=C\C1C(=O)CC(C)(C)CC1=O	5	101	nt	nt	i	1	nt
O=C(CN1CCC(NC(=O)c2ccco2)CC1)Nc1ccccc1[N+](=O)[O-]	4	106	nt	nt	i	1	nt
CCOC(=O)c1c(NC(=O)Cn2cnc([N+](=O)[O-])n2)sc(C)c1C	5	99	-50	65	i	0.99	nt
CCN1C(=O)C(C)S/C1=N\S(=O)(=O)c1ccc(F)cc1 (stereo unspecified)	-6	50	6	64	i	1	-0.8
O=c1[nH]c2ccccc2cc1-c1noc(-c2cccnc2)n1	3	103	nt	nt	i	1	-1.5
CCc1nnc(NC(=O)c2ccc(-c3cccc(C(F)(F)F)c3)o2)s1	-4	89	-11	65	i	0.91	3.0
N/C(=N\NS(=O)(=O)c1ccccc1C(F)(F)F)c1ccccn1	nt	108	nt	nt	i	1.1	nt
CSCc1ccc(C(=O)NCc2ccc(C)cc2)cc1	-4	97	-7	93	i	0.86	-0.5
Cn1cnnc1SCC(=O)Nc1ccc(Br)cc1F	-1	106	24	94	i	0.91	-3.0
CC1(C)N([O-])C(c2ccccc2)=C[N+](=O)C1(C)C	-8	99	-45	104	i	1	-2.2
O=C(CCc1nc2ccccc2c(=O)[nH]1)OCc1nnc(-c2ccccc2)o1	-2	100	nt	nt	i	0.98	-1.4
O=C(Nc1cccc(C(F)(F)F)c1)C1(c2ccccc2)CC1	-1	100	33	167	i	1	-0.4
CCc1cc2c(=O)[nH]c(-c3ccncc3)nc2s1	0	112	19	87	i	1	-0.9
COc1cc(OC)c(NC(=O)Cn2cccc2)cc1Cl	-4	97	nt	nt	i	1	-2.5
CCN1CCN(c2nc(Nc3ccc(C)c(C)c3)nc(N)c2[N+](=O)[O-])CC1	-4	107	8	93	i	0.76	0.2
O=[N+]([O-])c1ccc(C[n+]2cc(-c3ccc(Cl)c(Cl)c3)n3c2CCCCC3)cc1	nt	67	nt	nt	i	1	nt
CCOC(=O)/C(C#N)=C\c1ccc2c(c1)OCO2	-23	nt	-22	107	i	0.9	-0.4
Cc1ccc(S(=O)(=O)NCc2nc3ccccc3[nH]2)cc1	-9	95	nt	nt	i	0.89	-4.6
COCCOC(=O)C1=C(C)NC2=C(C(=O)CC(C)(C)C2)C1c1cc2c(cc1Br)OCO2 (stereo unspecified)	1	nt	nt	nt	i	0.97	-0.2
COc1cc2c(cc1OC)C1(NCC2)C(=O)Nc2ccccc21 (stereo unspecified)	2	94	nt	nt	i	0.84	-1.6
Nn1c(SCC(=O)Nc2ccc(F)c(F)c2)nnc1C1CCCCC1	-1	63	nt	nt	i	0.9	-0.9
Cc1sc2ncnc(NCCCO)c2c1C	-3	104	nt	nt	i	0.93	-0.6
Cc1ccc(N(C(=O)c2ccc(S(=O)(=O)N(C)C)cc2)C2C=CS(=O)(=O)C2)cc1 (stereo unspecified)	7	101	nt	nt	i	1.2	nt
CCOc1ccc(C(=S)N2CCOCC2)cc1OC	-7	98	31	103	i	1	-1.0
COc1cccc(CCNC(=O)CC2C(=O)NCCN2CC(C)(C)C)c1 (stereo unspecified)	-7	104	nt	nt	i	1.3	nt
CCN1CCN(S(=O)(=O)c2ccc3ccccc3c2)CC1	-2	101	-43	126	i	1.1	-1.7

Retrieved one by one from above (two):
SMILES	PKD1 inh	RGS16-Gao HTS	Insulin prom inh	Insulin prom inh cell count	HSV replic up	HSV replic up primary fold	GALR2 agonist
Cc1ccc(S(=O)(=O)NCc2nc3ccccc3[nH]2)cc1	-9	95	nt	nt	i	0.89	-4.6
CCOC(=O)/C(C#N)=C\c1ccc2c(c1)OCO2	-23	nt	-22	107	i	0.9	-0.4

(further entries)
SMILES	PKD1 inh	RGS16-Gao HTS	Insulin prom inh	Insulin prom inh cell count	HSV replic up	HSV replic up primary fold	GALR2 agonist
Cc1cc(C)nc(/N=C(\N)N(Cc2ccccc2)Cc2ccccc2)n1	3	105	nt	nt	i	0.98	nt
CCC(=O)NCCCc1nc2ccccc2n1Cc1ccccc1F	-3	102	2	81	i	0.99	nt
CCN(CC)C(=O)C(=O)Nc1cccc(Br)c1	1	100	nt	nt	i	0.96	nt
O=C(Oc1ccc(C(=S)N2CCOCC2)cc1)c1ccccc1	-2	98	6	79	i	1	nt
COc1ccc(N(C(=O)CCl)C(C(=O)NCCc2ccccc2)c2cccs2)cc1Cl (stereo unspecified)	-2	90	-257	0	i	0.64	-0.2
O=C(O)C1CCCCC1C(=O)Nc1cccc(Cl)c1Cl (stereo unspecified)	-6	99	-42	99	i	0.95	-4.2
COc1ccc(CNC(=O)CCNS(=O)(=O)c2cccc3nsnc23)cc1	0	112	nt	nt	i	0.94	nt
Clc1ccc(-c2ccc(SCc3ccccn3)nn2)cc1	-2	88	3	89	i	0.87	-0.2
Cc1ccc(-n2nc(C)c3c(C)c(CCC(=O)NCc4ccco4)c(C)nc32)cc1	-13	106	nt	nt	nt	nt	nt
Cc1csc(NC(=O)CSc2nnc(CCNC(=O)c3ccc(Cl)c(Cl)c3)n2C)n1	-4	nt	-26	117	i	0.85	-1.4

21 of the compounds above, in CSV form.
canonical_smiles,PKD1 inh,RGS16-Gao HTS,Insulin prom inh,Insulin prom inh cell count,HSV replic up,HSV replic up primary fold,GALR2 agonist
O=[N+]([O-])c1ccc(C[n+]2cc(-c3ccc(Cl)c(Cl)c3)n3c2CCCCC3)cc1,nt,67,nt,nt,i,1,nt
CCOC(=O)/C(C#N)=C\c1ccc2c(c1)OCO2,-23,nt,-22,107,i,0.9,-0.4
Cc1ccc(S(=O)(=O)NCc2nc3ccccc3[nH]2)cc1,-9,95,nt,nt,i,0.89,-4.6
COCCOC(=O)C1=C(C)NC2=C(C(=O)CC(C)(C)C2)C1c1cc2c(cc1Br)OCO2 (stereo unspecified),1,nt,nt,nt,i,0.97,-0.2
COc1cc2c(cc1OC)C1(NCC2)C(=O)Nc2ccccc21 (stereo unspecified),2,94,nt,nt,i,0.84,-1.6
Nn1c(SCC(=O)Nc2ccc(F)c(F)c2)nnc1C1CCCCC1,-1,63,nt,nt,i,0.9,-0.9
Cc1sc2ncnc(NCCCO)c2c1C,-3,104,nt,nt,i,0.93,-0.6
Cc1ccc(N(C(=O)c2ccc(S(=O)(=O)N(C)C)cc2)C2C=CS(=O)(=O)C2)cc1 (stereo unspecified),7,101,nt,nt,i,1.2,nt
CCOc1ccc(C(=S)N2CCOCC2)cc1OC,-7,98,31,103,i,1,-1.0
COc1cccc(CCNC(=O)CC2C(=O)NCCN2CC(C)(C)C)c1 (stereo unspecified),-7,104,nt,nt,i,1.3,nt
CCN1CCN(S(=O)(=O)c2ccc3ccccc3c2)CC1,-2,101,-43,126,i,1.1,-1.7
Cc1cc(C)nc(/N=C(\N)N(Cc2ccccc2)Cc2ccccc2)n1,3,105,nt,nt,i,0.98,nt
CCC(=O)NCCCc1nc2ccccc2n1Cc1ccccc1F,-3,102,2,81,i,0.99,nt
CCN(CC)C(=O)C(=O)Nc1cccc(Br)c1,1,100,nt,nt,i,0.96,nt
O=C(Oc1ccc(C(=S)N2CCOCC2)cc1)c1ccccc1,-2,98,6,79,i,1,nt
COc1ccc(N(C(=O)CCl)C(C(=O)NCCc2ccccc2)c2cccs2)cc1Cl (stereo unspecified),-2,90,-257,0,i,0.64,-0.2
O=C(O)C1CCCCC1C(=O)Nc1cccc(Cl)c1Cl (stereo unspecified),-6,99,-42,99,i,0.95,-4.2
COc1ccc(CNC(=O)CCNS(=O)(=O)c2cccc3nsnc23)cc1,0,112,nt,nt,i,0.94,nt
Clc1ccc(-c2ccc(SCc3ccccn3)nn2)cc1,-2,88,3,89,i,0.87,-0.2
Cc1ccc(-n2nc(C)c3c(C)c(CCC(=O)NCc4ccco4)c(C)nc32)cc1,-13,106,nt,nt,nt,nt,nt
Cc1csc(NC(=O)CSc2nnc(CCNC(=O)c3ccc(Cl)c(Cl)c3)n2C)n1,-4,nt,-26,117,i,0.85,-1.4

(next part)
SMILES	PKD1 inh	RGS16-Gao HTS	Insulin prom inh	Insulin prom inh cell count	HSV replic up	HSV replic up primary fold	GALR2 agonist
COc1ccccc1NC(=O)Nc1ccc(C(N)=O)cc1	0	107	0	116	i	1.1	nt
O=C1CC(C(F)(F)C(F)(F)C(F)(F)F)=Nc2ccccc2N1	2	203	31	106	i	0.9	-2.7
O=C(Cc1ccccc1)Nc1nnc(-c2ccco2)o1	-3	113	-89	95	i	0.99	nt
CSc1nc(C)nc2c1c(=O)n(C)c(=O)n2C	0	112	nt	nt	i	0.7	-3.8
C#CCOC(=O)C[N+](C)(C)C/C=C/c1ccccc1	-8	97	nt	nt	i	1	nt
O=C(N1CCOCC1)N1CCN(S(=O)(=O)N2CCOCC2)CC1	0	97	61	80	i	0.93	1.7
COc1cccc(/C=C/C(=C2/C(=O)N(c3ccccc3)N=C2C)c2ccccc2)c1OC	-7	103	nt	nt	i	0.72	-1.7
CCCC(=O)Nc1ccc(NC(=O)c2ccco2)cn1	2	112	nt	nt	i	0.91	-3.4
CCOc1ccc(C2CC(c3ccc(OC)cc3)n3ncnc3N2)cc1 (stereo unspecified)	6	102	nt	nt	i	0.76	-1.4
O=C1CSC(c2cn(-c3ccccc3)nc2-c2cc3ccccc3o2)N1Cc1ccccc1 (stereo unspecified)	3	99	-21	89	nt	nt	-2.7
COc1cccc(/C(O)=C2/C(=O)C(=O)N(CCN3CCOCC3)C2c2cccnc2)c1 (stereo unspecified)	2	109	i	67	nt	nt	-1.4
COCC(=O)N1CCCc2ccccc21	-6	96	-17	211	i	0.96	0.5
COC(=O)C1=C(C)N(CCc2c[nH]c3ccccc23)C(=O)C1	-6	99	-20	118	i	1.1	nt
Cc1[nH]n(-c2ncc(-c3ccc(Cl)cc3)s2)c(=O)c1C(c1ccc(Cl)cc1)C(C#N)C#N (stereo unspecified)	1	88	-14	112	i	0.83	0.6
CCN1C(=O)C(NC(C)=O)c2cc(OC)ccc21 (stereo unspecified)	-12	98	12	91	i	1.1	-1.6
CCOc1cc(CN2CCC(CO)(Cc3cccc(C(F)(F)F)c3)CC2)ccc1OC	-3	101	nt	nt	i	0.74	nt
CC(C)n1c2ccccc2c2nc3ccccc3nc21	-11	101	-7	100	i	0.88	-0.5
Cn1c(C(=O)N2CCN(c3nc4ccccc4s3)CC2)cc2sccc21	-12	101	-42	87	i	1.2	-0.6
CC1CN(S(=O)(=O)c2cccc(C(=O)OCc3cc(=O)oc4cc(O)ccc34)c2)CC(C)O1 (stereo unspecified)	14	101	-55	48	i	0.93	-0.1
CCOC(=O)c1[nH]cnc1C(=O)O	-7	107	nt	nt	i	0.98	-3.4
Cc1cc(C(C)(C)C)cc(C)c1CC1=NCCN1	2	117	0	50	i	0.72	0.5
